Source: PubChem
RGS16-Gao: regulators of human RGS16-Galphao interaction | hit rate 0.38% among 220,000 | O15492+P09471 | AID 1441 | binding response (% of control), % at 10 µM | bead-based flow cytometry RGS16-Galphao binding, fluorescence; actives lie on both sides;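 active = below 25% or above 175%, edge rows of some plates excepted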;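 also: Galphao activated by GDP with aluminum fluoride before binding; 100% = wells without compound and 0% = beads without RGS; some results beyond the cut were filed as inactive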
Target sequence (O15492 whole entry, looked up): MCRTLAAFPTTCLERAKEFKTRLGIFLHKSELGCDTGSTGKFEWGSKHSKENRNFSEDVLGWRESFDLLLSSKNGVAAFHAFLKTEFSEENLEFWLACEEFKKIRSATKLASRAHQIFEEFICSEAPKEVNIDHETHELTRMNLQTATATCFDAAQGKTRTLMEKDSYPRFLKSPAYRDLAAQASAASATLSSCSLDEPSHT
Target sequence (P09471 whole entry, looked up): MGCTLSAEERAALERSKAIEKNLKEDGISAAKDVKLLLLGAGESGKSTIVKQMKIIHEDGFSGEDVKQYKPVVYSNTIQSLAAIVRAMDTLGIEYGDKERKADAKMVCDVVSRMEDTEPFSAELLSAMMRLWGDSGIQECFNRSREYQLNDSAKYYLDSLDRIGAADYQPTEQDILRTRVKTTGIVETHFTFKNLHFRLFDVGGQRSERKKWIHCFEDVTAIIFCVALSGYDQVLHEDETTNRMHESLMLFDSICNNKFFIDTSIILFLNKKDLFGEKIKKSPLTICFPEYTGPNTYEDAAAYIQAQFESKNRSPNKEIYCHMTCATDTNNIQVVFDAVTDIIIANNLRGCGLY
PKD1 inh: PKD1 (human) kinase inhibition; hit rate 0.056% among 200,000; inhibition, %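 (about 10 µM by stock and volumes)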; PKD1 kinase fluorescence polarization assay; Q15139;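 active = inhibition of 50% or more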;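 also: controls were vehicle for no effect and a reference inhibitor for full effect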
Insulin prom inh: TRM-6 insulin promoter activity inhibition; AID 1273; inhibition, % at 2 µM; TRM-6 cells (human fetal islet line), insulin promoter-eGFP reporter, imaging; reporter expression induced with tamoxifen; hit rate 0.9% among 130,000;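 active = inhibition above the mean plus 3 SD, with well images judged a real hit on visual review, cut at about 60% in these data, passing the limit was not always enough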
GALR2 ag: activates the human galanin receptor 2. O43603. GALR2-expressing cells, agonist activation read-out. activation, %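 (tested at 5 µM)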. hit rate 0.48% among 140,000;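 active = above mean plus 3 SD of all compounds, about 5% in these data, not always enough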;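 also: 0% = vehicle buffer wells and 100% = reference agonist at full effect; tested in CHO reporter cells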
Target sequence (O43603 whole entry, looked up): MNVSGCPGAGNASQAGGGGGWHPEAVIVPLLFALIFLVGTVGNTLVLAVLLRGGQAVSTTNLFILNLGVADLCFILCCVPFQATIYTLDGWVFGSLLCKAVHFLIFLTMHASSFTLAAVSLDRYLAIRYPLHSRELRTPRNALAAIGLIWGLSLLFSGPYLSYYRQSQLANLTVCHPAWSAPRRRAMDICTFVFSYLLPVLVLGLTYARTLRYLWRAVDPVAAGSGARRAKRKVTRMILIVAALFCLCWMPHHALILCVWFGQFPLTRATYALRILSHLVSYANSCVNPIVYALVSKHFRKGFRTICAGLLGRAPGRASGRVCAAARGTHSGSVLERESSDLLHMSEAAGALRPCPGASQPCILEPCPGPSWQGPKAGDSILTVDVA
HSV augment: HSV replication enhancement; HSV replication augmentation in cells, fold increase; AID 1956; maximum fold increase; hit rate 0.005% among 220,000;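 active = peak rise of 1.5-fold or more in the series; tested in PC3 cells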;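 also: first round at 10 µM; read as green reporter fluorescence; hits show the peak of a series up to 25 µM; 1 = signal of infected wells without compound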
Insulin prom inh cell count: also measured in Insulin prom inh; calls as there; normalized cell count, %; measured here: cell count, toxicity; reference of the scale not given here;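 cells exposed to compound for 48 h; stained nuclei by imaging scaled within each plate; lower means fewer cells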
HSV augment primary fold: recorded beside HSV augment, whose call it bears; fold increase; compound at 10 µM; measured here: primary screen fold increase 10 uM; tested in PC3 cells;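 GFP signal in the first replicate; 1 = infected wells without compound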
Active calls of the source: *; i = inactive; . = not tested or not shown.

#	smiles	RGS16-Gao	PKD1 inh	Insulin prom inh	Insulin prom inh cell count	GALR2 ag	HSV augment	HSV augment primary fold
1	O=C1Nc2ccccc2C12OCC1(CO2)COC2(OC1)C(=O)Nc1ccccc12 (configuration not stated)	106.1	-4.9	3.6	94.2	-1.2	i	0.963
2	NNc1nc(N)c2c(n1)-c1ccccc1CC21CCCC1	99.2	-2.8	.	.	-0.4	i	0.95
3	CC(Sc1nc(C(C)(C)C)cc(-c2ccccc2)c1C#N)C(=O)Nc1ccccc1 (configuration not stated)	80.3	-6.8	-25.0	109.6	-0.7	i	1
4	O=c1c2ccccc2nc(-c2ccccc2)n1CCN1CCOCC1	91.0	-19.1	.	.	-1.5	i	0.92
5	O=c1sc2ccccc2n1COc1ccc(Cl)cc1	105.2	-1.6	-34.6	108.1	-3.4	i	1.01
6	N#Cc1ccc(S(=O)(=O)NC2CCN(Cc3ccccc3)CC2)cc1	101.7	.	.	.	.	i	1.08
7	CCOC(=O)CCCNC(=O)COC(=O)c1cc(Br)c(Br)s1	97.3	-4.8	.	.	.	i	0.89
8	COc1ccc(CN2CC(C(=O)NCCCN3CCN(Cc4ccccc4)CC3)CC2=O)cc1 (configuration not stated)	111.3	-13.8	21.4	113.8	-1.6	i	1.01
9	CCOC(=O)C(=CNc1ccc(C#N)cc1)C(=O)OCC	104.2	-6.6	.	.	.	i	0.91
10	O=C(COC(=O)Cn1cnc2ccccc21)NCCc1ccccc1	96.7	-4.6	.	.	-2.1	i	1.04
11	CCC(=O)Nc1ccc2c(c1)nc(CN1CCCCC1)n2C	100.2	-0.7	.	.	.	i	0.95
12	C=C(C)CNC(=S)N1CCN(C(c2ccccc2)c2ccccc2)CC1	95.9	5.3	.	.	.	i	0.97
13	Cc1cc(C)nc(N/N=C/c2sccc2C)n1	95.9	-0.7	-5.3	86.3	.	i	0.93
14	NC(=O)c1ccccc1N=Cc1ccc2ccccc2c1	102.8	-3.2	33.3	91.6	-1.7	i	0.84
15	O=C(NCCCn1ccnc1)c1cn(-c2ccccc2)nc1-c1ccccc1	98.2	-5.3	-100.0	58.1	-0.4	i	0.81
16	COc1ccc(-c2nn3cnnc3s2)cc1OC	85.5	-2.4	-12.1	144.8	-2.0	i	0.71
17	COC(=O)c1cc(C(=O)OC)n(Cc2ccc(C)cc2)c1C	103.7	-4.2	.	.	.	i	1.1
18	C=CCOC(=O)C1=C(C)NC(SCC(=O)N(CC)CC)=C(C#N)C1c1ccco1 (configuration not stated)	74.9	3.8	-61.5	106.9	-0.8	i	0.9
19	Cc1cc(C)nc(N/N=C/c2ccc3c(c2)OCCO3)n1	104.0	1.4	-6.7	141.5	.	i	0.94
20	COC(=O)Cc1c(C)nc2nc(Cc3ccccc3)[nH]n2c1=O	118.5	-3.0	30.7	123.5	0.3	i	0.98
21	COC(=O)c1ccc(CSc2nc3c(cnn3-c3ccc(F)cc3)c(=O)[nH]2)o1	94.4	-7.3	64.3	94.5	-0.1	i	0.95
22	COc1cc(/C=N/NC(N)=O)ccc1OCC(=O)Nc1ccc(C)c(C)c1	102.0	-10.1	.	.	-2.2	i	0.88
23	O=C(COC(=O)c1ccc(Cl)nc1)NCc1ccc2c(c1)OCO2	98.8	-6.5	.	.	0.4	i	1.2
24	Cc1c(-c2ccccc2)oc2c(C(=O)OCC(=O)Nc3ccc(C(N)=O)cc3)cccc2c1=O	92.8	2.8	18.9	122.9	0.1	i	0.72
25	CCC(Sc1nc(C)cc(C)n1)C(=O)NC1=NN=C(c2ccc(C)cc2)CS1 (configuration not stated)	98.9	3.7	.	.	-2.1	i	1
26	CCN1C(=O)c2ccc(C(=O)O)cc2C1=O	93.0	4.7	-15.8	103.4	0.3	i	1
27	CCn1c(=NC(=O)COc2ccccc2)sc2cccc(F)c21	100.9	.	.	.	.	i	0.99
28	COc1ccc(N2CC(C(=O)N/N=C/c3ccc(C)cc3)CC2=O)cc1 (configuration not stated)	37.9	-0.9	.	.	.	i	0.67
29	CNC(=O)CN1C(=O)NC(Cc2c[nH]c3ccccc23)C1=O (configuration not stated)	101.5	.	.	.	.	i	1.07
30	Cc1cccc(NC(=O)Cn2cnc3ccc(S(=O)(=O)N4CCC(C)CC4)cc3c2=O)n1	99.6	0.8	.	.	-2.4	i	1.07
31	Cc1cccc(-c2nnn(CC/C(N)=N/O)n2)c1	114.2	-1.1	22.2	123.2	0.2	i	0.74
32	Cc1ccc(NC(=O)c2cc(C(=O)c3cc(Cl)ccc3O)cn(-c3ccc(C)cc3)c2=O)cc1	109.3	-10.3	16.9	112.9	-1.2	i	0.96
33	CC(=O)N(/N=C1\Sc2ccccc2C1=O)c1ccccc1	103.1	9.0	23.3	123.3	-1.1	i	0.97
34	Cc1c(-c2ccccc2)nc(N)c(C#N)c1-c1cccs1	105.4	0.7	-5.7	81.9	-2.8	i	0.95
35	CC(C)c1nc(SCC(=O)c2ccc(F)cc2)c2ccccc2n1	94.3	-4.6	.	.	.	i	0.99
36	CCOC(=O)CNC(=O)c1sc(NC(=O)c2ccccc2)nc1C	103.1	-5.9	-37.9	64.6	-2.5	i	0.94
37	COC(C#CCCN(C)C)(c1ccccc1)c1ccccc1	110.6	2.9	.	.	-0.3	i	0.82
38	CC(C)CCOCC1CC2(CC(C)(c3csc(N)n3)OC2=O)C(=O)O1 (configuration not stated)	99.0	10.9	.	.	-3.6	i	1.04
39	NC(=O)C1=C[C@H](c2ccc(Br)cc2)C[C@H](OCc2ccc(CO)cc2)O1	104.5	-3.1	.	.	.	i	1.09
40	COC(=O)CCS(=O)(=O)c1ccc(Cl)c(Cl)c1	118.7	2.4	-77.3	119.6	-2.1	i	0.81
41	O=C(O)c1c[nH]c(=S)n1-c1ccc(F)cc1	100.1	7.4	-5.7	90.7	-1.7	i	1
42	O=C(NC(=S)Nc1cccc(S(=O)(=O)NC2=NCCC2)c1)c1cc(-c2ccco2)nc2ccccc12	104.3	.	.	.	.	i	1.25
43	O=C(Nc1cc(S(=O)(=O)N2CCOCC2)ccc1N1CCCCC1)c1cc(-c2ccccn2)nc2ccccc12	90.7	-5.9	.	.	.	i	0.89
44	O=C(N1CCOCC1)N(Cc1ccco1)CC1CCCO1 (configuration not stated)	103.9	-4.0	5.9	162.8	-1.3	i	1.11
45	c1ccc(Oc2cc(-n3cncn3)ncn2)cc1	97.0	-0.5	.	.	-0.8	i	0.88
46	CCc1nc2ccccc2nc1N1CCN(S(=O)(=O)c2ccc(Cl)cc2)CC1	111.6	.	.	.	.	i	1.17
47	NC(N)=N/N=C/c1ccc(Cl)cc1Cl	103.9	.	.	.	.	i	0.5
48	Clc1ccc(-n2nnnc2-c2cnc3ccccc3c2-c2ccccc2)cc1	100.8	.	.	.	.	i	0.97
49	Cc1ncc([N+](=O)[O-])n1CCOC(=O)NC(Nc1ccc(F)cc1)C(Cl)(Cl)Cl (configuration not stated)	100.8	.	.	.	.	i	1.01
50	CCc1ccc(N2C(=O)CN(CC(=O)OC)C2=S)cc1	114.4	-5.8	66.7	49.1	.	i	0.92
51	COCCNC(=O)CSc1nc2cc(OC)c(OC)cc2c(=O)n1CCC1=CCCCC1	105.1	-3.0	-9.1	233.0	-2.5	i	0.81
52	Cc1ccn2cc(CCNC(=O)COc3ccccc3)nc2c1	98.0	.	.	.	.	i	0.99
53	CCOC(=O)C1(C)C=C(Nc2ccccc2)C(=O)N1c1ccccc1 (configuration not stated)	103.1	-0.4	71.4*	106.2*	.	i	0.97
54	O=C(CNC(=O)C1COc2ccccc2O1)N/N=C\c1cccc(O)c1 (configuration not stated)	103.9	-8.0	.	.	-1.0	.	.
55	Cc1ccc(S(=O)(=O)N2CCC(C(=O)OCC(=O)N3CCc4ccccc43)CC2)cc1	92.8	-4.8	.	.	-1.6	i	0.87
56	COC(=O)c1ccccc1-c1ccc(/C=N/NC(N)=O)o1	103.4	.	.	.	.	i	1.39
57	Cn1c(=O)c2c(SCc3c(F)cccc3Cl)nc(CC(C)(C)C)nc2n(C)c1=O	83.5	-5.5	.	.	-2.4	i	1.03
58	O=[N+]([O-])c1ccc(N/N=C2\CC3CC=CC23)cc1 (configuration not stated)	117.0	4.2	0.0	96.9	.	i	1.13
59	CCCCC1CCC(C(=O)Nc2ccc(S(=O)(=O)Nc3nccs3)cc2)CC1 (configuration not stated)	102.9	-4.2	57.1	74.7	-1.4	i	1
60	Cc1ccn2c(C(=O)N/N=C\c3cccs3)c(C)nc2c1	111.5	-8.6	50.0	113.8	-4.3	i	1.11

Next section; it opens with the 4 that closed the last part.
#	smiles	RGS16-Gao	PKD1 inh	Insulin prom inh	Insulin prom inh cell count	GALR2 ag	HSV augment	HSV augment primary fold
57	Cn1c(=O)c2c(SCc3c(F)cccc3Cl)nc(CC(C)(C)C)nc2n(C)c1=O	83.5	-5.5	.	.	-2.4	i	1.03
58	O=[N+]([O-])c1ccc(N/N=C2\CC3CC=CC23)cc1 (configuration not stated)	117.0	4.2	0.0	96.9	.	i	1.13
59	CCCCC1CCC(C(=O)Nc2ccc(S(=O)(=O)Nc3nccs3)cc2)CC1 (configuration not stated)	102.9	-4.2	57.1	74.7	-1.4	i	1
60	Cc1ccn2c(C(=O)N/N=C\c3cccs3)c(C)nc2c1	111.5	-8.6	50.0	113.8	-4.3	i	1.11
61	O=C(NCCN1CCCCCC1)C1CC(=O)N(CCc2ccccc2)C1 (configuration not stated)	107.3	0.8	20.0	80.2	-2.6	i	1.01
62	S=C(Nc1ccc(Cl)cc1)N(CCCN1CCOCC1)Cc1ccco1	190.8	-2.9	24.3	115.4	-2.4	i	0.95
63	COc1ccc(OCC(=O)NN2Cc3ccccc3C2=N)cc1	103.3	8.4	14.3	50.0	-0.8	i	1
64	Cc1cc(C)nc(Nc2n[nH]c(Cc3ccccc3)n2)n1	120.5	-10.0	-71.4	120.9	-1.1	i	0.91
65	Cc1ccc(C)c(OCCn2cc(C(=O)O)c3ccccc32)c1	93.9	2.3	7.1	152.0	.	.	.
66	CCCCc1nc(SCC(=O)Nc2ncccn2)n[nH]1	106.8	-10.1	33.3	64.4	-0.2	.	.
67	CC1=C(C(=O)OCC2CCCO2)C(c2coc3ccccc3c2=O)C2=C(CC(C)(C)CC2=O)N1 (configuration not stated)	97.0	7.0	35.3	79.6	.	i	0.89
68	Cc1ccc(S(=O)(=O)CC(=O)Nc2ccc(F)c(F)c2F)cc1	-6.7*	.	.	.	.	i	1
69	O=C(CNC(=O)c1ccccc1Cl)N/N=C/C=C/c1ccccc1	104.7	4.0	-6.7	85.6	-0.5	i	0.91
70	O=C(NCCCCc1ccccc1)c1ccccc1Cl	102.1	-10.5	21.4	111.8	.	i	0.9
71	Cc1ccccc1CNC(=O)C(=O)Nc1nccs1	107.8	-0.7	-100.0	162.3	.	i	1.06
72	BrCCOCCOc1ccc2ccccc2c1	46.0	0.8	.	.	-2.1	i	1.03
73	O=C(CC1C(=O)NCCN1C(=O)Nc1ccccc1)Nc1ccc2c(c1)OCO2 (configuration not stated)	98.6	-16.8	.	.	-3.1	i	1.02
74	COc1ccc2c(c1)CC/C(=C\c1ccc(OC)c(Cn3nc(C)cc3C)c1)C2=O	99.0	0.7	-22.9	77.8	-2.6	i	0.59
75	O=S(=O)(Nc1nc(-c2sccc2Cl)cs1)c1cc(Cl)ccc1Cl	100.7	-2.0	9.4	119.0	-2.9	i	0.96

Two compounds from above, showing only HSV augment and Insulin prom inh cell count.
nr | Structure | HSV augment | Insulin prom inh cell count
72 | BrCCOCCOc1ccc2ccccc2c1 | i | .
73 | O=C(CC1C(=O)NCCN1C(=O)Nc1ccccc1)Nc1ccc2c(c1)OCO2 (configuration not stated) | i | .
